Assay outcomes (PubChem BioAssay)
CDC25B CDK2 inh: human CDC25B-CDK2/CyclinA binding inhibition; z-score (test concentration not listed); HTRF CDC25B-CDK2/CyclinA binding, anti-His/anti-Flag; stronger effect = higher value; P30305+P24941; AID 1259370; hit rate 0.72% among 94,000;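 note: score is relative to mean and SD of negative controls; strong numbers were not always called active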
HIV TAR-Tat: HIV-1 TAR-Tat binding disruption; HIV-1 TAR RNA, Tat peptide displacement FRET; stronger effect = higher value; z-score (concentration not given with the values); hit rate 0.6% among 100,000;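 note: score is relative to mean and SD of negative controls; some compounds called inactive have numbers as strong as hits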
* marks the source's active call; other numbers are inactive results; · = no result given.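 Rule for the calls: active = z-score from 3 up in half or more of its runs; inactive = the rest.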 Random draw from the library; overall some 0.97% were active at least once.

The opening 2 compounds as a preview:
SMILES	CDC25B CDK2 inh	HIV TAR-Tat
O=C(CSc1ccsc1[N+](=O)[O-])Nc1ccc(Br)cc1F	3.65	13.2*
CN(C)c1ccc(NC(=O)c2cccs2)cc1	-3.95	0.18

The whole of this part (from the top)
SMILES	CDC25B CDK2 inh	HIV TAR-Tat
O=C(CSc1ccsc1[N+](=O)[O-])Nc1ccc(Br)cc1F	3.65	13.2*
CN(C)c1ccc(NC(=O)c2cccs2)cc1	-3.95	0.18
CCC(C(=O)N1CCN(c2cc(=O)n(C)c(=O)n2C)CC1)N1C(=O)COc2ccccc21 (stereo not drawn)	·	1.15
CN(Cc1ccccc1)c1ncnc2c1cnn2-c1ccc(F)cc1	·	1.65
O=C1CC(c2cc(F)ccc2F)c2c(nc(SCc3ccc(F)cc3)[nH]c2=O)N1 (stereo not drawn)	-0.67	-0.66
CCOc1ccc(C2C(C(=O)OC)=C(C)NC3=C2C(=O)c2ccccc23)cc1OC (stereo not drawn)	-3.01	-1.76
Cc1cccc(OCc2nn3c(-c4ccccc4Cl)nnc3s2)c1	-0.73	-1.48
CCCCS(=O)(=O)c1oc(-c2cccs2)nc1S(=O)(=O)c1ccc(F)cc1	-4.75	1.21
CCCc1n(CC(O)COCC2CC=CCC2)c2ccccc2[n+]1C (stereo not drawn)	0.29	1.86
Cc1cc(NC(=S)NNC(=O)c2cccnc2Oc2ccccc2)ccc1Br	-1.27	·
C=CCN(C(=O)CN(c1ccc(C(C)C)cc1)S(=O)(=O)c1c(C)nn(C)c1C)C1CCCCC1	-0.95	·
CCc1nc2nc(C)cc(Nc3cccc(F)c3)n2n1	-0.52	0.84

Of the compounds above, these have two or more sulfur atoms.
SMILES	CDC25B CDK2 inh	HIV TAR-Tat
O=C(CSc1ccsc1[N+](=O)[O-])Nc1ccc(Br)cc1F	3.65	13.2*
CCCCS(=O)(=O)c1oc(-c2cccs2)nc1S(=O)(=O)c1ccc(F)cc1	-4.75	1.21

Continuation.
SMILES	CDC25B CDK2 inh	HIV TAR-Tat
NC1(C(=O)O)CCC1	·	0.3
CNC(=O)CCc1nc2sc3c(c2c(=O)[nH]1)CCCCC3	·	0.79
Cc1cc(C2CCCN2S(=O)(=O)c2ccc3c(c2)OCCO3)on1 (stereo not drawn)	·	0.92
COC(=O)c1ccc(C2c3c(oc4cc(C)c(C)cc4c3=O)C(=O)N2c2nccs2)cc1 (stereo not drawn)	-1.92	1.84
CN1CCN(c2cc(NCC(=O)O)c3c4c(onc24)-c2ccccc2C3=O)CC1	3.85*	0.58
CCCN(CCC)S(=O)(=O)c1ccc(-c2cc(C(F)(F)F)on2)s1	·	1.8
Cc1cc2c3c([nH]c2cc1S(=O)(=O)NC(C)Cc1ccco1)CC(C)(C)CC3=O (stereo not drawn)	·	1.87
COc1cc(C2Nc3ccccc3S(=O)(=O)N2Cc2ccccc2)cc(Br)c1OC (stereo not drawn)	-2.02	2.31
N#Cc1ccc(C(c2c(O)[nH]c(=O)[nH]c2=O)c2c(O)[nH]c(=O)[nH]c2=O)cc1	0.11	·
CCc1onc(C)c1C1CCCN1C(=O)Nc1ccccc1 (stereo not drawn)	·	1.89
COC(=O)c1sc(N2C(=O)C(O)=C(C(=O)c3cccs3)C2c2ccc(C(C)C)cc2)nc1C (stereo not drawn)	0.56	-2.17
CN(C)CCNC(=O)c1ccc(Cn2c(=S)[nH]c3ccccc3c2=O)cc1	-2.46	·
CCOC(=O)c1c(CN(CC)CC)n(C)c2cc(Br)c(OC)cc12	-0.02	0.26
CCCc1nc2n[nH]c(N)c2c2c1CCCC2	-1.88	·
CC1CCCCN1CCCNC(=O)c1cc2c(s1)-c1ccc(Cl)cc1S(=O)(=O)C2 (stereo not drawn)	-2.56	0.68
O=C(CN1N=NC2C(=O)N(c3ccc(F)cc3)C(=O)C21)Nc1ccc(Cl)cc1 (stereo not drawn)	·	1.06
Fc1ccc(-c2cn3c4ccccc4n(CCN4CCOCC4)c3n2)cc1	-0.34	0.12
COc1ccc2nc(Nc3nc4ccc(OC)cc4s3)sc2c1	-1.56	0.29
O=C(NCCc1cccs1)C1CCCN(c2nn3c(=O)c4c(nc3s2)CCCC4)C1 (stereo not drawn)	·	1.7
CCOC(=O)c1c(C)oc2nc(C)nc(N(CC)CC)c12	·	-0.26
COc1ccc(S(=O)(=O)N2CCC(NC(=O)NCC3CCCCC3)CC2)cc1	-1.92	1.89
COc1ccc(C2CC(=O)C3=C(C2)NC(C)=C(C#N)C3c2cccc(OC)c2OC)cc1 (stereo not drawn)	-2.47	0.11
O=c1c2c(-c3ccc(-c4ccccc4)cc3)csc2ncn1-c1ccccc1	-0.43	1.89
Cc1ccc(-c2noc(-c3nnn(-c4ccc(Br)cc4)c3C)n2)cc1	·	0.62

Retrieved by compound from the list above, six records:
SMILES	CDC25B CDK2 inh	HIV TAR-Tat
CCC(C(=O)N1CCN(c2cc(=O)n(C)c(=O)n2C)CC1)N1C(=O)COc2ccccc21 (stereo not drawn)	·	1.15
CN(C)c1ccc(NC(=O)c2cccs2)cc1	-3.95	0.18
O=c1c2c(-c3ccc(-c4ccccc4)cc3)csc2ncn1-c1ccccc1	-0.43	1.89
CCOC(=O)c1c(CN(CC)CC)n(C)c2cc(Br)c(OC)cc12	-0.02	0.26
CCCc1n(CC(O)COCC2CC=CCC2)c2ccccc2[n+]1C (stereo not drawn)	0.29	1.86
COC(=O)c1ccc(C2c3c(oc4cc(C)c(C)cc4c3=O)C(=O)N2c2nccs2)cc1 (stereo not drawn)	-1.92	1.84

Additional entries:
SMILES	CDC25B CDK2 inh	HIV TAR-Tat
O=c1ccc2ccccc2o1	·	1.97
CCc1cc2c(=O)c(-c3nc4ccccc4s3)c(C)oc2c(CN(C)C)c1O	-2.3	2.25
Cc1oc(-c2ccccc2F)nc1CSc1nc2c(c(=O)[nH]1)CCC2	-0.81	-0.32
Cn1c(=O)oc2cc(S(=O)(=O)N3CCCC(C(=O)N4CCc5ccccc5C4)C3)ccc21 (stereo not drawn)	-0.86	2.15
CCN(CC)c1nc(N)c([N+](=O)[O-])c(Nc2cc(OC)ccc2OC)n1	·	1.87
Cc1nc2c(C)cccn2c(=O)c1NC(=O)c1cccc(Br)c1	·	0.42
O=C(NCCN1CCN(c2cccc(Cl)c2)CC1)c1noc2c1CSc1ccccc1-2	-0.54	0.95
CCCOC(=O)C1C2C=CC3(CN(c4ccc(Cl)cc4)C(=O)C13)O2 (stereo not drawn)	0.91	1.53
Cn1c(=O)cc(OCC(=O)NCC2COc3ccccc3O2)c2ccccc21 (stereo not drawn)	-0.71	·
O=C(O)C(Cc1ccc([N+](=O)[O-])cc1)NS(=O)(=O)c1ccccc1 (stereo not drawn)	-1.29	·
CC1=C(C(=O)OCC2CCCO2)C(c2ccc3c(c2)OCO3)C2=C(CC(C)(C)CC2=O)N1 (stereo not drawn)	0.01	-0.04
O=C1NC(c2ccco2)c2c1n[nH]c2-c1ccco1 (stereo not drawn)	5.3*	2.38

Filtered by structure, the entries above with a nitro group on carbon (3)
SMILES	CDC25B CDK2 inh	HIV TAR-Tat
O=C(CSc1ccsc1[N+](=O)[O-])Nc1ccc(Br)cc1F	3.65	13.2*
CCN(CC)c1nc(N)c([N+](=O)[O-])c(Nc2cc(OC)ccc2OC)n1	·	1.87
O=C(O)C(Cc1ccc([N+](=O)[O-])cc1)NS(=O)(=O)c1ccccc1 (stereo not drawn)	-1.29	·

(continued)
SMILES	CDC25B CDK2 inh	HIV TAR-Tat
Cc1c(NS(=O)(=O)c2ccc3[nH]c(=O)ccc3c2)c(=O)n(-c2ccccc2)n1C	·	1.97
Cc1[nH]c2ccccc2c(=O)c1CN1CCN(C)CC1	-1	-0.45
Cc1nc(-c2csc(S(=O)(=O)N3CCc4ccccc43)c2)no1	·	2.67
CCOC(=O)N1CCC(NC(=O)Cn2cnc(S(=O)(=O)N3CCCCC3)c2)CC1	·	1.98
CCOC(=O)C1=C(N)OC2=C(C(=O)CC(C)(C)C2)C1c1ccc(OC)c(OC)c1 (stereo not drawn)	-1.62	·
CCc1nnc2sc(-c3ccccn3)nn12	-0.16	0.55
Cc1ncc(-c2ccc(C)c(S(=O)(=O)NCc3cccs3)c2)o1	·	1.09
C=CCOc1c(OC)cccc1C1CC(=O)Nc2c1cnn2-c1nc2ccccc2s1 (stereo not drawn)	·	1.92
Cc1ncc(CO)c2cc(-c3nc(-c4ccncc4)no3)c(=O)oc12	-1.4	-0.23
Cc1ccc(C)c(Nc2ncnc3c2cnn3C)c1	·	1.21
O=C(Nc1ccccc1)c1ncc[nH]1	-3.39	·
CCC(=O)n1c(=O)oc2ccc(C(C)(C)C)cc21	·	0.88
O=C(O)c1c[nH]c2ccc(S(=O)(=O)N3CCOCC3)cc2c1=O	·	1.32
Cc1cc2c3c([nH]c2cc1S(=O)(=O)N1CCN(C2CCCCC2)CC1)CC(C)(C)CC3=O	·	1.52
COC(=O)COC(=O)c1cnn2c(C(F)(F)F)cc(-c3ccccc3OC)nc12	0.38	1.82
CC(=O)Nc1ccc(S(=O)(=O)NCc2cn3ccsc3n2)cc1	3.41	·
O=C(Nc1ccccn1)c1cccc(C(=O)Nc2ccccn2)n1	0.57	0.81
O=C(Nc1ccc(S(=O)(=O)N2CCOCC2)cc1)c1nn(-c2cccc(Cl)c2)ccc1=O	-2	1.33
CCc1nc2nc(C)cc(Nc3ccc(F)c(Cl)c3)n2n1	0.79	0.9
Cc1cc(N2CCN(C)CC2)n2nc(C(F)(F)F)c(-c3ccc(Cl)cc3)c2n1	-1.09	1.48
O=C(CCc1nnc2ccc(NCc3ccc4c(c3)OCO4)nn12)NCc1ccccc1Cl	·	1.09
COc1ccc(-c2nnc(SCc3cc(=O)n4c5c(sc4n3)CCCC5)o2)cc1OC	-1.76	1.07
COc1ccccc1OCCSc1nc(-c2ccccc2F)nc2cc(=O)[nH]n12	·	-0.03
Cc1ccc(C)c(CNS(=O)(=O)c2ccc3c(c2)C(C)(C)C(=O)N3C)c1	·	1.99
Cn1c(=O)c2c(SCC(=O)Nc3ccccc3)nc(-c3ccco3)nc2n(C)c1=O	-1.51	·
CC(CN1CCCCC1)OC(=O)c1ccc2c(c1)OCCO2 (stereo not drawn)	-1.61	·
CCCC(=O)Nc1ccc2c(c1)nc1n2CCN(C(C)C)C1	-0.85	-2.98
Cc1ccc(-c2cnnc(-n3nc(C)c4c3NC(=O)CC4c3ccccc3Cl)n2)cc1 (stereo not drawn)	-3.27	4.06
Cc1ccc(-c2onc(C)c2C)cc1S(=O)(=O)NCc1ccco1	·	1.64
Cc1cc(F)ccc1NS(=O)(=O)c1cc2c3c(c1)CCN3C(=O)CC2	·	1.55
CC1CN(C(=O)CCC(=O)N2CCOCC2)c2ccccc2O1 (stereo not drawn)	-1.94	1.85
OCc1ccccc1O	·	1.29
CCCN(CCC)c1c(-c2ccc(Cl)cc2)c(=O)c1=O	·	-0.43
CCCc1cc(=O)[nH]c2c1c(C)nn2-c1cccc(F)c1	·	2.23
CC(C)n1cc(C(=O)O)c(=O)c2ccccc21	-0.19	·
CN(C)c1ccc(CNCCCSc2nnnn2-c2ccccc2)cc1	-0.91	1.61
O=S(=O)(NCC(c1ccco1)N1CCOCC1)c1ccc2c(c1)OCCO2 (stereo not drawn)	·	1.38
O=c1ccc(-c2ccc(S(=O)(=O)N3CCN(C4CCCCC4)CC3)o2)n[nH]1	·	2.94
CCOC(=O)C1=C(C)Nc2nc3ccccc3n2C1c1cc(OC)ccc1OC (stereo not drawn)	1.27	-1.04
Cc1ccc(-c2coc(-c3ccc(N)cc3)n2)c(C)c1	·	1.76
O=C(NCc1cccn1Cc1cccc(F)c1)NC1CCCCC1	-2.59	0.97
CCOc1cc(C2C(C(=O)OC3CCCCC3)=C(C)NC3=C2C(=O)CC(C)(C)C3)ccc1OC(C)=O (stereo not drawn)	-1.51	0.81
Cc1ccc(-n2ncc(C(=O)O)c2-n2cccc2)cc1	1.87	1.04
CC(C)(C)n1nc2c(c1NC(=O)c1ccc(S(=O)(=O)N3CCCC3)cc1)CSC2	3.67	·
COC(=O)c1ccc2c(=O)n3nc(Nc4cc(C)cc(C)c4)sc3nc2c1	·	1.52
COC(=O)C1=C(OC(=O)c2ccccc2)c2ccccc2S(=O)(=O)N1C	-0.89	0.27
COC(=O)c1ccc(C2C=C(c3ccccc3)Nc3nc4ccccc4n32)cc1 (stereo not drawn)	-0.7	·
Cc1ccc(NC2C=CS(=O)(=O)C2)cc1 (stereo not drawn)	-1.58	·
CC1CC(=O)Nc2cc(S(=O)(=O)N3CCCCC3)ccc2S1 (stereo not drawn)	·	0.56
CC(C)Cc1nc(SCC(=O)Nc2ccc3c(c2)OCO3)c2c(=O)n(C)c(=O)n(C)c2n1	·	-0.08
CC(NC(=O)CCc1nnc2ccc(N3CCOCC3)nn12)c1ccc2c(c1)OCCO2 (stereo not drawn)	·	1.15
Cc1nnsc1C(=O)Nc1nc2ccc(Cl)cc2s1	-0.64	0.36
CC(C)(C)C1CCc2c(sc3ncc(NC(=O)c4ccccc4)c(=O)n23)C1 (stereo not drawn)	0.23	0.43
CC1Sc2ccc(S(=O)(=O)CCC(=O)NC(C)(C)C)cc2NC1=O (stereo not drawn)	·	2.18
Cc1c(-c2nsc(NC(=O)c3ccco3)n2)nnn1-c1cccc(Cl)c1	-0.52	2.68
Clc1ccc(OCc2ccsc2Cn2cccc2)cc1	-2.32	·
CC1CCc2c(sc3nc(CCC(=O)NCc4cccs4)[nH]c(=O)c23)C1 (stereo not drawn)	·	-1.43
Cn1cccc1Cc1nnc(SCC(=O)Nc2ccccc2F)n1C	-0.74	-0.23
CCC1CCCCN1CCCNC(=O)C1=C(C)C(=O)OC12CCCCC2 (stereo not drawn)	-0.32	0.24
N/C(=N\OC(=O)c1cccs1)c1ccc2c(c1)CCO2	-0.65	·
Cc1cnc(NC(=O)c2ccc3c(c2)OCO3)s1	-1.24	0.24
CCCCOC(=O)c1ccc(NS(=O)(=O)c2c(C)nc3scc(C)n3c2=O)cc1	-1.92	1.17
CC(C)CC1N=C2c3ccccc3N=C(SCC(=O)N3CCN(c4ccccc4F)CC3)N2C1=O (stereo not drawn)	·	0.44
